# hNpr1 antagonist – antagonists of human natriuretic peptide receptor Npr1; P16066; AID 1347048; Potency, µM (series often up to 46.3 µM), without a hit: top-dose activity change, negative = inhibition, most hits filed as inhibitors; HEK293 hNpr1 GloSensor cGMP, ANP-stimulated luminescence; actives 1.6% (n = 76,000); active = well fitted inhibition curve with a large enough effect; inconclusive = small, poorly fitted or top-dose-only effect; inactive = no such curve, though single readings can be large or run the other way;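 also: nearly all actives have a fitted effect of over 60% in size; nearly all hits also lower the signal before the agonist is added; a reference antagonist and vehicle were the controls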
# Target sequence (P16066 whole entry, looked up): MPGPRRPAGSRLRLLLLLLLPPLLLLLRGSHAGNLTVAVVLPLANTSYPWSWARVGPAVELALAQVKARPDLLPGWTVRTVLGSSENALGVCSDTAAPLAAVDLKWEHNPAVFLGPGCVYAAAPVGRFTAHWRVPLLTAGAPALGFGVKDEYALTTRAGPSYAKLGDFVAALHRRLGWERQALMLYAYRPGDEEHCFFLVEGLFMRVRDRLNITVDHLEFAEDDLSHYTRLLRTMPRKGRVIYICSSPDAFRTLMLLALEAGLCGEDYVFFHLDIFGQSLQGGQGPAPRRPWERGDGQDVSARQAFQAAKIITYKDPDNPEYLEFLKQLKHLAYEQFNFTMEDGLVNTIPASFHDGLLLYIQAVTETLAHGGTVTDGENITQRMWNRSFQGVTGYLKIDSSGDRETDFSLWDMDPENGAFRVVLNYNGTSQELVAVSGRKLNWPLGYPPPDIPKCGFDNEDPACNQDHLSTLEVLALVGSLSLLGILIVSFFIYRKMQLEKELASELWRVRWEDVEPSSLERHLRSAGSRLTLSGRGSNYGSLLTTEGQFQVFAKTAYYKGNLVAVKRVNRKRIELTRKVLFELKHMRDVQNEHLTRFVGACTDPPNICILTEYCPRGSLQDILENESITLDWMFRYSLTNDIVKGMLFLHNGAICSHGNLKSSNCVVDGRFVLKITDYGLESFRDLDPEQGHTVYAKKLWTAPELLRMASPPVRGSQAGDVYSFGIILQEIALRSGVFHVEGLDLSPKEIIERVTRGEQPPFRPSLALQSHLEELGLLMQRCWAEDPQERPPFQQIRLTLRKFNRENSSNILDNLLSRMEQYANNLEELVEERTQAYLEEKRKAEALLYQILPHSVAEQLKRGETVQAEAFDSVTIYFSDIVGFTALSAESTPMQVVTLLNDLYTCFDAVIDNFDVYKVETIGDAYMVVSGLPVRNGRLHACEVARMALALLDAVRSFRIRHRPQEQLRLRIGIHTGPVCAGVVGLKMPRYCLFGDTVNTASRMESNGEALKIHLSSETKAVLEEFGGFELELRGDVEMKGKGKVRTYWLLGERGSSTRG
#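 Compound pre-incubated 30 min at room temperature on GloSensor-loaded HEK293 cells stably carrying hNpr1 and the pGS-40F cGMP biosensor. Stimulation uses hNppA at 0.1 nM final; luminescence is taken at baseline and 20 min post-agonist.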
# * marks the source's active call; other numbers are inactive results; ? = inconclusive; [ ] = remark or other dose. % is scaled to controls: 0 for no effect and ±100 for the full control effect; potency is read from the fitted curve at half-maximal effect. A portion of the library; rates above refer to the full screens.
compound	hNpr1 antagonist
CNCC(=O)N1CCC(C2CCN(C(=O)NC)CC2)C1 (centres undefined)	0.5%
CCS(=O)(=O)N1CCC(Nc2cccnc2)C1 (centres undefined)	3.3%
Cc1cc(C)cc(C(=O)NC2CCN(c3cn[nH]c(=O)c3)CC2)c1	0.7%
CCn1nccc1C(=O)N1CCCC(c2nnnn2C)C1 (centres undefined)	-2.4%
CNC(=O)[C@@H](c1ccc(Cl)cc1)N1CCC[C@H]1C(=O)NCC1CC1	3.9%[70.6 µM]
O=C(CC1C(=O)NCCN1Cc1ccc(-c2ccccc2)cc1)NCc1ccco1 (centres undefined)	2.7%
Cc1ccc(OCC(=O)NCc2cccnc2N2CCOCC2)cc1	0.5%
CCOc1ncccc1C(=O)N1C[C@H](OCC)[C@@H](O)C1	3.7%
Cc1cc(Cl)ccc1OCC(=O)N[C@@H]1CCOC[C@H]1OCC(=O)O	0.9%
CC(C)(C)CC(=O)N1CC[C@@H](CC(=O)O)[C@@H](CCN2CCOCC2)C1	5.6%[70.6 µM]
COc1cccc(CC(=O)Nc2ccc3ncnc(N4CCCC4)c3c2)c1	4.9%
O=C1NCCCCCCN(C(=O)C2CCCC2)[C@H]2C[C@H](C(=O)N3CCN(c4ccccn4)CC3)C[C@@H]12	1.8%
Cc1oc2ccn(Cc3cccc(F)c3)c(=O)c2c1C(=O)NCc1cccnc1	-3.4%
CN1C(=O)c2cccn2CC1CNC(=O)Cc1cccc(F)c1 (centres undefined)	1.8%
Cc1n[nH]c(C)c1C(N)C(=O)NCc1cc(C(F)(F)F)ccc1F (centres undefined)	7.5%
CCCN(C/C=C/c1ccccc1)C(=O)c1cccc(OCC(N)=O)c1	-3.0%
Cc1cccc2nc(CNC(=O)c3cccc(C4CCNC4)c3)cn12 (centres undefined)	-0.1%
Clc1ccc(Oc2cccc(CN3CCN(C4CCNC4)CC3)c2)cc1 (centres undefined)	3.4%
CN(C)[C@H]1CCN(C(=O)c2ccc(S(N)(=O)=O)cc2)C[C@H]1CCC(=O)O	0.5%
O=C1COc2ccc(Oc3ccccc3)nc2CN1Cc1ccccc1	-16.2%[70.6 µM]

# Laid out differently: entries from further up
Compound: CCS(=O)(=O)N1CCC(Nc2cccnc2)C1 (centres undefined)
  hNpr1 antagonist: 3.3%

Compound: Cc1cc(C)cc(C(=O)NC2CCN(c3cn[nH]c(=O)c3)CC2)c1
  hNpr1 antagonist: 0.7%

Compound: CCn1nccc1C(=O)N1CCCC(c2nnnn2C)C1 (centres undefined)
  hNpr1 antagonist: -2.4%

Compound: CNC(=O)[C@@H](c1ccc(Cl)cc1)N1CCC[C@H]1C(=O)NCC1CC1
  hNpr1 antagonist: 3.9%[70.6 µM]

# Remaining list, next part:
compound	hNpr1 antagonist
O=C(CN1C(=O)C(c2ccccc2)=NC12CCCCC2)NC1CCCCC1	-11.1%
O=C(c1ccc2cc[nH]c2c1)N1CCC2(CC1)CC(O)CCO2 (centres undefined)	0.0%
CCS(=O)(=O)N(C1CC1)C1CCOC2(CCN(C(=O)c3cccc(C)c3)CC2)C1 (centres undefined)	-9.7%
COc1ccc(OC)c(NC(=O)Cn2cccc2-c2nc(-c3ccc4c(c3)OCO4)no2)c1	-13.5%
COC[C@@H]1CN(C(=O)c2cncc(C)c2)C[C@H]1C(N)=O	2.3%
CS(=O)(=O)N1CCCN(CC2CCCCC2)CCNC(=O)CC1c1ccccc1 (centres undefined)	-3.6%
O=C(N[C@H]1CCN2C(=O)c3cc(-c4ccccc4)ccc3NC(=O)[C@H]12)c1cnccn1	-2.2%[70.6 µM]
CCc1cccc(NC(=O)c2ccc3c(c2)N(C)C2CCCCN2C3=O)c1 (centres undefined)	-3.7%
CN(Cc1cccnc1)Cc1nc(C2(O)CCN(C3CCC3)CC2)cs1	4.3%[70.6 µM]
OC1(c2csc(CN3CCc4ccccc4C3)n2)CCNCC1	-0.8%[70.6 µM]
Cc1cccc(N(C)C(=O)Cn2ccn3nc(-c4ccc(F)cc4)c(CO)c3c2=O)c1	2.0%
COc1ccc(-n2nc(C)c([C@@H]3C=C[C@@H](NS(=O)(=O)c4cccs4)C3)c2C)cc1	?
CN1CCC(N[C@@H]2CO[C@H](CNC(=O)CC(C)(C)C)[C@H]2O)CC1	-13.2%[70.6 µM]
CN(C)CC1(O)CCC2(CCN(C(=O)CCC3CCCC3)CC2)CC1	7.9%
Cc1nc(CN2CCN(c3nccc(-c4cccnc4)n3)CC2)cs1	4.1%
N#Cc1ccc(O[C@@H]2CCOC[C@H]2NC(=O)CCc2cccs2)cc1	-3.8%
O=C(c1ccc(Cl)cc1)N1CCOCC2(CN(Cc3ccccc3)C2)C1	3.1%[70.6 µM]
CN1C[C@@H](NC(=O)CC(C)(C)CC(=O)O)C[C@H]1c1nc(-c2ccccn2)no1	-0.3%[70.6 µM]
Cc1ccc(-c2cc(N3CCCN(C(=O)c4cccn4C)CC3)n[nH]2)cc1C	0.4%
COC(=O)c1cc(C#N)c(N2CCCC(O)(CN(C)C)CC2)nc1C (centres undefined)	-8.7%
COc1ccc(C2(C(=O)N3CCC4(CC3)C(OC)C(=O)N4c3cccc(F)c3)CC2)cc1 (centres undefined)	?
C[C@@H]1CN(C(=O)c2nc3sccn3c2CN(C)Cc2ccc3nonc3c2)C[C@H](C)O1	-20.7%
O=C1NC2(CCN(Cc3ccccc3C(F)(F)F)C2)COc2ccccc21 (centres undefined)	12.6%
COCCNC(=O)c1ccc(-c2ccc(N3CCCCCC3)nc2)cc1	-3.3%
CC(C)CNC(=O)N1CCCCCC1CN1CCOCC1 (centres undefined)	-0.4%
CCC(CC)NC(=O)C1Cn2cccc2C(=O)N1 (centres undefined)	-0.5%
O=C1OCC2(CCN(Cc3ccc(Cl)cc3)C2)N1Cc1ccccn1 (centres undefined)	-0.4%[70.6 µM]
CCc1nc2c(c(-c3ccc(Cl)cc3)n1)CCN(Cc1ccc(C#N)cc1)CC2	7.0%
Cc1cnn(CC(=O)N2CCC(Cn3c(C)cnc3C3CC3)CC2)c1	-1.2%
COc1cccc(-c2ccnc3nc(-c4ccccc4OC)nn23)c1	-4.5%
O=C(c1ccc(N2CCC(O)CC2)nc1)N1CCC(N2CCOCC2)CC1	-0.6%
CC(C)NC(=O)N(C1CCOCC1)C1CN(C(=O)c2ccco2)C1	-0.5%
CN1CCC(N2CC[C@@H]3[C@H]2C(=O)NC[C@H](CCC(=O)N2CCN(C)CC2)N3C)CC1	2.5%[70.6 µM]
O=C1N[C@@H]2CCN(S(=O)(=O)c3ccc(Cl)cc3)[C@@H]2C(=O)N1c1ccc(Oc2ccccc2)cc1	-22.8%
COc1ccc(-c2ccccc2NC(=O)C2CCCN(Cc3cccc(F)c3F)C2)cc1 (centres undefined)	-1.3%
CCc1noc(-c2cn(C3CCN(C(=O)c4ccc(N(C)C)cc4)CC3)nn2)n1	1.7%
O=C(c1ccccc1Cl)N1CCC2(CC1)CC(O)CCO2 (centres undefined)	2.8%
CC(=O)N1C(=O)COC[C@@H]1[C@H](O)c1ccc(NC(=O)C2CCC2)cc1	2.4%[70.6 µM]
COc1ccc(-c2cc(N3CCN(C(=O)c4cccc(C#N)c4)CC3)n[nH]2)cc1	0.0%
CN1CCC(Oc2nccnc2N2CCc3ccccc32)C1 (centres undefined)	-0.9%
COc1ccccc1N1CCN(C(=O)CN2C(=O)C(c3ccccc3)=NC23CCCC3)CC1	-14.6%
COc1cc(OC)cc(C(=O)N2[C@@H]3CC[C@H]2CC(NC(=O)c2ccncc2)C3)c1 (some centres undefined)	-3.0%
N#Cc1cccc(NC(=O)Cn2nc3n(c2=O)CCCCC3)c1	-9.8%
O=C(c1cccc(O)c1)N1CC(COc2ccccc2)C2(C1)CN(C(=O)c1cn[nH]c1)C2 (centres undefined)	0.5%[70.6 µM]
OCCC1CN(Cc2cnn(-c3ccccc3)c2)CCN1Cc1cccs1 (centres undefined)	-12.3%
Cc1cc(C(=O)N[C@@H]2CCC[C@@H](C(=O)N(C)Cc3cccnc3)CC(=O)N(C)C2)c(C(F)(F)F)o1	-1.3%
CS(=O)(=O)N(C1CC1)C1CCOC2(CCN(C(=O)c3cccc(F)c3)CC2)C1 (centres undefined)	-1.4%
COc1ccc(C[C@H](NC(=O)[C@@]2(O)C[C@@H](O)[C@H](O)[C@@H](NC(=O)CS(=O)(=O)c3ccccc3)C2)C(N)=O)cc1	0.4%
COc1ccc(-c2noc(-c3nc(-c4ccccc4OC)no3)n2)cc1OC	2.6%
CC(C)NC(=O)NC[C@H]1O[C@H](Cc2cc(-c3ccc(F)cc3)on2)CC[C@@H]1O	-19.8%[70.6 µM]
CCCNC(=O)N1CC(Oc2ccc(-c3nc(C)no3)cc2)C1	-15.6%
Cc1cccc(NC(=O)N2CCC(c3cc(-c4cccc(C)c4)n[nH]3)CC2)c1	-14.8%
CCn1cc(CN2CCC(N3C(=O)C4(CCCCC4)C3c3ccncc3)CC2)c(C)n1 (centres undefined)	3.0%
Cc1ccc(CNC(=O)C2CCCCC(=O)N2)o1 (centres undefined)	-19.1%
COc1ccc(C(=O)N2CCC3(CC2)CC(c2nc(C)no2)N(C)C3)c(OC)n1 (centres undefined)	2.7%
CC(C)(C)CN1CCN(Cc2cnc(-c3ccc(Cl)cc3)nc2)CC1CCO (centres undefined)	?
N#Cc1cccc(CN2CCC[C@H]2c2nc(-c3cncnc3N)no2)c1	1.7%[70.6 µM]
COc1ccc(CN2C(=O)[C@@H]3C[C@@H](CN3C3CCN(C)CC3)Oc3ccccc32)cc1	-1.5%[70.6 µM]
CC(C)CN1C(=O)c2cccn2CC1CNC(=O)c1ccco1 (centres undefined)	-2.0%
Cc1ccccc1CN1CC(Oc2cccc(C(=O)NCC3CC3)c2)C1	17.2%

# Part of the list above in order of molar mass, low to high.
compound	hNpr1 antagonist
Cc1ccccc1CN1CC(Oc2cccc(C(=O)NCC3CC3)c2)C1	17.2%
COc1ccccc1N1CCN(C(=O)CN2C(=O)C(c3ccccc3)=NC23CCCC3)CC1	-14.6%
Cc1cc(C(=O)N[C@@H]2CCC[C@@H](C(=O)N(C)Cc3cccnc3)CC(=O)N(C)C2)c(C(F)(F)F)o1	-1.3%

# Other records:
compound	hNpr1 antagonist
NC1CCCN(Cc2cccc(OCCCn3ccnc3)c2)C1 (centres undefined)	1.4%
COc1ccc(CNC(=O)CC[C@]23CC[C@](C)(O)C[C@H]2C(C)(C)C[C@@H]3NCc2ccccn2)cc1	2.2%
O=C(c1cnc2ccccn12)N1CCc2c(nc(-c3ccccc3)[nH]c2=O)C1	4.9%
COc1cccc(C(=O)N2CCn3c(nnc3-c3ccccc3)C2)c1	10.4%[70.6 µM]
CN(c1ccccc1)c1cc(=O)c2ccnc(-c3ccc(CO)cc3)c2o1	-12.2%[70.6 µM]
COCCCNC(=O)C(NC(=O)c1ccccc1)C1CCN(C(=O)c2ccccc2F)CC1 (centres undefined)	-1.8%
CN1CCN(Cc2ncc[nH]2)CC12CCC(=O)N(CC(=O)O)CC2 (centres undefined)	-20.4%
Cc1nc(CN2Cc3nc(-c4cccc(C(F)(F)F)c4)ccc3OCC2=O)cs1	-2.0%[70.6 µM]
CN1[C@@H](CCC(=O)Nc2ccccc2)CNC(=O)[C@@H]2[C@H]1CCN2Cc1cccc(OC(F)(F)F)c1	-4.0%
O=C(C[C@@H]1O[C@H](CNS(=O)(=O)c2ccc(Cl)cc2)[C@@H](O)[C@H]1O)NC1CC1	0.8%[70.6 µM]
CO[C@H]1[C@H](NC(=O)CC(C)C)c2ccccc2C12CCNCC2	4.1%
OCc1cccc(-c2ccc3ncc(Nc4cccc(F)c4)n3n2)c1	-24.3%[70.6 µM]
O=C(NCC1CCCN(Cc2ncccn2)C1)c1ccc(-c2ccccc2)cc1 (centres undefined)	-1.1%
CCc1nc2c(c(-c3ccc(O)cc3)n1)CN(Cc1ccc(OC)cc1)CC2	0.3%
COc1ccc(NC(=O)N2CCn3nnc(CCC(=O)N4CCOCC4)c3C2)cc1	4.2%
COc1ccc(-c2cc(N3CCC(NC(=O)c4ccc(C)c(F)c4)CC3)n[nH]2)cc1	?
CN(C(=O)c1ccccc1)C1CCc2ccccc21 (centres undefined)	11.3%[70.6 µM]
Cc1ccc(NC(=O)N2CCCC(Cn3cnc4cccnc43)C2)cc1F (centres undefined)	0.0%
CO[C@H]1C(=O)N(C(C)C)[C@H]1C1CCN(C(=O)Nc2ccccc2F)CC1	5.8%
COC(=O)c1ccc2nc(CO[C@H]3CN(C(=O)c4ccccc4)C[C@H]3F)[nH]c2c1	0.5%[70.6 µM]
CSCC(=O)N1CC[C@H](NC(=O)NC2CCCCC2)[C@H]1C(=O)N[C@H](Cc1c[nH]c2ccccc12)C(N)=O	5.5%
COc1ccc(NC(=O)CC2CCOCC2)cc1	-13.3%
COCCc1nncn1C1CCN(C(=O)c2ccc(F)c(Cl)c2)CC1	2.6%
O=C(Nc1ccc(F)cc1)[C@@H]1C[C@@H](c2cccc(C(F)(F)F)c2)N(CC2CCOCC2)C1	-18.0%
Cc1ccccc1S(=O)(=O)N1CCCC(CCC(=O)NC2CC2)C1 (centres undefined)	3.1%
O=C(NCC1CN([S+](=O)([O-])c2cccnc2)CC12CN(c1ccccc1)C2)Nc1ccccc1 (centres undefined)	4.7%
CC(=O)NC1(C)CCCN(Cc2cc(-c3cccc(N(C)C)c3)cs2)C1 (centres undefined)	-0.8%[70.6 µM]

# Source: PubChem BioAssay
